# Yeast UUG start = modulators of yeast start codon fidelity, primary screen, whole organism, S. cerevisiae, single point, plate reader | activity score, % at 18.7 µM | AID 602363, 2012 | 350,000 compounds, 0.13% hits | S. cerevisiae UUG-firefly luciferase reporter, luminescence/redox ratio;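 active means replicate mean at a twofold rise or more, about +100% in these data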;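 further: firefly luciferase made from a UUG start codon reports start codon fidelity; reporter light over untreated wells divided by growth signal over untreated wells; some hits fall short of that in this replicate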
# eIF4H FP inh = human eIF4H binding inhibitors, primary screen, translation initiation inhibitor project, biochemical, uHTS, fluorescence polarization; Eukaryotic translation initiation factor 4H (Homo sapiens), Q15056; eIF4H fluorescence polarization binding assay; inhibition, % at 35 µM; 290,000 compounds, 0.94% hits; AID 2012, 2009;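 active means 50% or more with normal probe brightness, or confirmed in later tests; about a fifth of its hits are not listed in these tables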;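 further: calls also rest on retests at 20 µM and on dose response follow-up; 0% = protein and probe with vehicle and 100% = probe without protein; strong numbers were not always called active; many hits fall short of the cut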
# Rce1 inhib = yeast Rce1p protease inhibitors, primary screen, biochemical, fluorescence, cell-free homogeneous; CAAX prenyl protease 2 (Saccharomyces cerevisiae (strain ATCC 204508 / S288c)), Q03530; yeast membranes, quenched prenylated peptide cleavage fluorescence; calls only; 290,000 compounds, 0.27% hits; AID 2563, 2010;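 active means fall in fluorescence gain of 50% or more versus controls, with final raw signal at or below 3038400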;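 further: plate controls were neutral control wells for no effect and wells lacking membranes for full effect; tested at 10 µM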
# HIV Env fusion = inhibitors of HIV-1 Env-driven cell-cell fusion, primary screen, HeLa-JRFL effector, CEM21 target cells, luciferase | AID 651610, 2012 | inhibition, % at 12.3 µM | 360,000 compounds, 1.1% hits;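 active means mean replicate inhibition score of at least 50 and every replicate individually at or above 50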;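 further: 0% = plate neutral controls and 100% = maraviroc near 300 nM; one replicate is shown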
# PABP FP inh = PABP poly(A) RNA binding inhibitors, primary screen, biochemical, fluorescence polarization, uHTS; Polyadenylate-binding protein 1 (Homo sapiens), P11940; inhibition, % at 35 µM; 290,000 compounds, 1% hits;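 active means 50% or more with normal probe brightness, or confirmed in later tests; about a fifth of its hits are not listed in these tables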;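 further: calls also rest on retests at 20 µM and on dose response follow-up; controls were probe without protein and protein plus probe with vehicle; some compounds called inactive have numbers as strong as hits; many hits fall short of the cut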
# Target sequence (P11940 whole entry, looked up): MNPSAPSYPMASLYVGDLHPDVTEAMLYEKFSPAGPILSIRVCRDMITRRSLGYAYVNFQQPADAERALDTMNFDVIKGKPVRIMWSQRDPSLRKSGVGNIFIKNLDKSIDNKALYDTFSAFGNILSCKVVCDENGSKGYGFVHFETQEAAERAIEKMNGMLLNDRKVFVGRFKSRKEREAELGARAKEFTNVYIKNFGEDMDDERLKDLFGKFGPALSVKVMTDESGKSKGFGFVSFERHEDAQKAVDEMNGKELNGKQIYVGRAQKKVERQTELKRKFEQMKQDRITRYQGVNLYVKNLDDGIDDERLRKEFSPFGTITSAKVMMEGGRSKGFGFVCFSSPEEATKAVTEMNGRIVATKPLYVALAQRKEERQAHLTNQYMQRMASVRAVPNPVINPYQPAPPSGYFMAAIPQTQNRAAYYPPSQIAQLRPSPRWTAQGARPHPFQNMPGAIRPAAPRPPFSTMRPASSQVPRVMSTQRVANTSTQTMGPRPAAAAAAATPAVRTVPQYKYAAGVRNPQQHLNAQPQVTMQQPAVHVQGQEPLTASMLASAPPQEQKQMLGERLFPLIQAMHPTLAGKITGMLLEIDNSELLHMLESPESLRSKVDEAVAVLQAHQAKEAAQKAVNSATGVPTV
# CSC inhib = cancer stem cell viability inhibitors, primary screen, luminescence; cancer stem cell-like cells viability; inhibition, % at 7.5 µM; 300,000 compounds, 1.1% hits;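 active means mean at 75% or more and at least half the replicates too; tested in HMLE shEcad cells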;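 further: 0% = median of negative and 100% = median of positive control wells; the first replicate is given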
# MT1-MMP act inh = blockers of MT1-MMP proenzyme processing, primary screen, HT1080 RFP-PRO-GFP cells, GFP/RFP fluorescence. Matrix metalloproteinase-14 (Homo sapiens), P50281. GFP/RFP ratio fluorescence, overnight; percent of plate control window, DMSO zero. GFP/RFP ratio change, % at 20 µM. 360,000 compounds, 0.061% hits. AID 651647, 2012;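 active means GFP/RFP ratio change of at least 30% with cell ATP level not reduced by more than half and red fluorescence within 50% of control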; further: strong numbers were not always called active
#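 Test system: HT1080 RFP-PRO-GFP cells; Benchmarks: DMSO and RFP-L50D-GFP cell wells; Timing: cells overnight before dosing, compound overnight, 37 °C, 5% CO2; Compound: one 20 µM compound dose with 1% DMSO; Read-out: GFP/RFP fluorescence ratio.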
# eIF4H FP inh retest = also measured in eIF4H FP inh; calls as there; inhibition, %; compound at 20 µM; confirmation average;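 mean of two retest wells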
# PABP FP inh retest = recorded beside PABP FP inh, whose call it bears; inhibition, %; compound at 20 µM; confirmation repeats;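 mean of two retest wells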
# MT1-MMP act inh RFP = further read-out of MT1-MMP act inh, marked with its call; RFP signal change, %; measured here: RFP expression control read;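 0 = vehicle wells; hits needed this value within 50% of zero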
# Active calls of the source: *; i = inactive; . = no result given; & = joins results of further samples; [ ] = remark or other dose.
SMILES,Yeast UUG start,eIF4H FP inh,Rce1 inhib,HIV Env fusion,PABP FP inh,CSC inhib,MT1-MMP act inh,MT1-MMP act inh RFP,others
CCC(C)(C)NC(=O)C(c1ccc(F)cc1)N(Cc1ccco1)C(=O)CCC(=O)Nc1ccccn1 (stereo not given),17,-6,i,.,63,22,6,6,eIF4H FP inh retest=10;PABP FP inh retest=5
O=C1OCCN1C(=O)[C@H]1[C@H](c2ccc(F)cc2)C(c2cccc(Cl)c2)=NN1c1ccccc1,-14,.,.,6,.,.,3,8,
COc1ccc(C(C(=O)NCC2CCCO2)N(C(=O)Cn2nnc3ccccc32)c2ccccc2C(C)=O)cc1OC (stereo not given),-7,7,i,-15,-6,-10,0,0,
Cc1cccc(C)c1N1C(=O)c2cccc([N+](=O)[O-])c2C1=O,-8,-10,i,-222,5,-1,3,5,
COc1ccc(NC(=O)c2onc(C)c2Cl)cc1,-25,-2,i,-6,-8,-4,-5,0,
Cn1c(=O)c2c(SCC(=O)N3CCN(c4ccccc4)CC3)nc(C3CC3)nc2n(C)c1=O,-5,6,i,-62,7,5,0,-4,
CN(C)S(=O)(=O)c1cccc(NC(=O)COC(=O)/C=C/c2ccc3c(c2)OCO3)c1,-5,-4,i,-3,-6,-14,0,0,
CC(C)OCCCNc1ncc2c(n1)CC(c1cccs1)CC2=O (stereo not given),.,-1,i,-4,1,-16,0,1,
Cc1c(NC(=O)C2CCCCN2S(=O)(=O)c2ccc(Cl)cc2)c(=O)n(-c2ccccc2)n1C (stereo not given),-11,-7,i,-22,7,-5,-1,4,
CS(=O)(=O)c1ccc(Cl)c(NC(=O)COC(=O)c2ccc(F)cc2Cl)c1,-2,7,i,1,8,.,8,-4,
O=C(/C=C/c1ccccc1)NNC1=NS(=O)(=O)c2ccccc21,.,-4,i,6,0,3,-1,4,
O=C(Nc1ccccc1C(=O)Nc1ccccc1)c1ccco1,-12,-3,i,-4,8,12,-2,0,
CCOC(=O)C1=NN(c2ccccc2C)C2=NC(C)=C(C(=O)OC)C(c3cccs3)N12 (stereo not given),-2,53,i,-18,-6,0,3,-2,eIF4H FP inh retest=36;PABP FP inh retest=35
CCn1c(=O)cc(NC2=NCC(C)CN2c2cccc(Cl)c2)n(C)c1=O (stereo not given),12,0,i,1,-2,-12,-2,-1,
N#Cc1ccc(OS(=O)(=O)c2ccc(-c3ccon3)s2)cc1,-11,2,i,-8,-2,9,-2,-7,
CC1=C(C(=O)N(C)C)CC(CC(=O)NC(c2ccccc2)c2ccccc2)C(=O)N1CCC1=CCCCC1 (stereo not given),10,.,.,-103,.,.,0,-2,
COc1cccc(-c2csc(N3CCN(C(=O)Nc4ccccc4Cl)CC3)n2)c1,.,-2,i,-11,-2,-2,1,2,
CCn1c(COc2ccc(Cl)cc2)nnc1SCc1ccc(C#N)cc1,-15,-2,i,.,9,-12,3,-6,
Oc1ccc(Nc2nc(-c3cccs3)cs2)cc1,.,3,i,-32,-1,-8,3,9,
CCOC(=O)c1ccc(-n2c(CN3CCC(C(N)=O)CC3)nc3ccc([N+](=O)[O-])cc3c2=O)cc1,6,10,i,6,-3,7,-2,-1,
OC(COC(c1ccc(Cl)cc1)c1ccc(Cl)cc1)CN1CCN(c2ccccn2)CC1 (stereo not given),-12,2,i,27,5,59,-1,1,
Cc1nn(CC(=O)NCc2ccc(C(=O)O)cc2)c(C)c1[N+](=O)[O-],.,-1,i,10,-13,-2,-4,1,
Cc1ccccc1C(=O)NCCc1nnc(SCC(=O)Nc2nc(-c3ccccc3)cs2)n1C,-28,4,i,-23,-5,-4,-1,-3,
O=C(COC(=O)C1CC(O)CN1S(=O)(=O)c1ccccc1[N+](=O)[O-])c1ccc[nH]1 (stereo not given),-22,.,.,7,.,-8,2,1,
CCn1c(=O)cc(SCC(=O)N2CCC(C)CC2)c2ccccc21,.,-12,i,-41,-2,-3,15,5,
Cc1oc(/N=C/c2ccccc2O)c(C#N)c1C,-19,79*,i,25,69*,-5,-1,0,
CCC(C)[C@H]1CNCCN1CC1(c2ccccc2)CC1 (stereo not given in full),-16,.,i,-11,.,12,1,6,
CCC(C)NC(=O)c1cc(Cl)ccc1OC (stereo not given),-14,-3,i,.,0,-3,6,6,
CN(C)c1ccc(C=Cc2ccnc3c(O)cccc23)cc1,-16,.,.,41,.,.,-20,11,
Cc1cccc(NC(=S)N2CCC(O)CC2)c1C,-19,-7,i,-1,-8,-5,3,3,
CC(=O)N1CCOc2ccc(S(=O)(=O)NCCc3ccc(C)cc3)cc21,1,-10,i,-8,11,-6,3,0,
O=[N+]([O-])c1ccc2nc(C3CCCCC3)[nH]c2c1,-9,1,i,-26,1,-10,0,1,
CCOc1ccccc1NC(=S)N(CCN(C)C)C(C)c1ccncc1 (stereo not given),.,-1,i,-10,-12,-23,-2,1,
Cc1ccc2nc(-c3cccc(S(=O)(=O)N(C)C)c3)cn2c1,-11,-8,i,.,-1,-12,1,-2,
O=[N+]([O-])c1ccccc1C(=Nc1ccccc1)c1c(O)cc(O)cc1O,-7,.,.,-8,.,.,15,-2,
COc1cccc(N/C(N)=N/c2nc(C(F)(F)F)cc(C(F)(F)F)n2)c1,.,4,i,20,31,11,1,-6,
COc1cccc(CNC(=O)c2ccc(S(=O)(=O)N3CCOCC3)cc2)c1,-11,.,.,-12,.,.,-1,1,
CCOC(=O)C(C)(C)Sc1nc2c(cnn2-c2ccc(F)cc2)c(=O)[nH]1,3,-16,i,2,-7,-18,5,-4,
CC(C)NC(=O)N(C)C[C@H]1OCc2cnnn2CCCC(=O)N([C@H](C)CO)C[C@@H]1C,-10&4&-16,.,.,11[16.7 µM],.,.,5,4,
CC(=O)c1ccc(S(=O)(=O)N(Cc2cc3cc4c(cc3[nH]c2=O)OCCO4)CC2CCCO2)cc1 (stereo not given),-12,2,i,-100,-4,-12,-4,3,
COc1ccc(NC(=O)C(=O)NCC2CCCN2S(=O)(=O)c2cc(C)ccc2C)cc1 (stereo not given),-3,.,i,9,.,51,-7,-17,
CC(C)c1cc(C(=O)Nc2cccc(Cl)c2)no1,-26,-10,i,-440,2,3,2,6,
CCC(C)c1ccc(NC(=S)N2CCN(C(=O)C3CCCO3)CC2)cc1 (stereo not given),-27,-5,i,.,-2,-22,4,2,
CCCCCCCCSc1nnc(/N=C/N(C)C)s1,.,-9,i,5,2,31,3,1,
O=c1cc(O)nc(SCc2ccccc2Cl)[nH]1,-14,4,i,.,5,-5,1,3,
CCn1c(SCC(=O)N2CCN(c3cccc(Cl)c3)CC2)nc2ccccc2c1=O,-7,-5,i,16,-1,27,3,6,
Cc1cc(NC(=O)Cn2cnc3sccc3c2=O)no1,-14,.,.,.,.,-11,-7,0,
CSc1c2c(nc3ncnn13)CCC2,2,-3,i,-25,13,-7,9,10,
Cc1cc(C(=O)Nc2ccc(C)c(S(=O)(=O)N3CCOCC3)c2)c(C)o1,.,-9,i,2,-3,.,3,6,
COC(=O)C1=C(C)N(C)C(C)=C(C(=O)OC)C1c1ccncc1,-10,-2,i,.,-5,-7,6,5,
# Following part.
SMILES,Yeast UUG start,eIF4H FP inh,Rce1 inhib,HIV Env fusion,PABP FP inh,CSC inhib,MT1-MMP act inh,MT1-MMP act inh RFP,others
COc1ccc(NC(=O)c2cccc3c(Br)cccc23)cc1,-24,-5,i,-15,-5,16,0,3,
N/C(CCS(=O)(=O)c1ccc(Cl)cc1)=N\OC(=O)c1ccc(Cl)cc1,.,0,i,4,12,5,2,0,
CC1=NN(c2ccccc2)C(=O)C1=C(C)C,1,33,i,11,8,-2,-18,5,
COC(=O)c1ccc(NC(=O)c2cccc(NC(=O)c3ccco3)c2)cc1,-11,-12,i,10,-12,0,1,0,
Cc1cccc(N(Cc2ccccc2)C(=O)c2cccc(S(=O)(=O)N3CC(C)OC(C)C3)c2)c1 (stereo not given),2,.,i,.,.,-4,-6,-11,
O=C(O)CCCn1c(=S)[nH]c2c(sc3ccc([N+](=O)[O-])cc32)c1=O,.,5,i,-6,7,.,0,1,
O=c1[nH]c(C2CCN(S(=O)(=O)c3ccc4c(c3)OCCO4)CC2)nc2c1nnn2Cc1cccc(F)c1,-9,21,i,13,-6,-8,2,0,
COc1ccc(CCn2c(C)cc(C(=O)CN3C(=O)C(=O)N(Cc4ccco4)C3=O)c2C)cc1,-13,.,.,.,.,50,-1,-8,
Cc1ccc(NC(=O)C2CCCN(S(=O)(=O)c3cccnc3)C2)cc1C (stereo not given),.,2,i,3,14,13,1,-3,
CCc1nc2c(OCc3ccc(S(C)(=O)=O)cc3)cccn2c1N(C)C(=O)c1ccccc1F,-5,.,.,-2,.,.,-3,3,

# In the list so far, 13 contain a Cl atom.
SMILES,Yeast UUG start,eIF4H FP inh,Rce1 inhib,HIV Env fusion,PABP FP inh,CSC inhib,MT1-MMP act inh,MT1-MMP act inh RFP,others
O=C1OCCN1C(=O)[C@H]1[C@H](c2ccc(F)cc2)C(c2cccc(Cl)c2)=NN1c1ccccc1,-14,.,.,6,.,.,3,8,
COc1ccc(NC(=O)c2onc(C)c2Cl)cc1,-25,-2,i,-6,-8,-4,-5,0,
Cc1c(NC(=O)C2CCCCN2S(=O)(=O)c2ccc(Cl)cc2)c(=O)n(-c2ccccc2)n1C (stereo not given),-11,-7,i,-22,7,-5,-1,4,
CS(=O)(=O)c1ccc(Cl)c(NC(=O)COC(=O)c2ccc(F)cc2Cl)c1,-2,7,i,1,8,.,8,-4,
CCn1c(=O)cc(NC2=NCC(C)CN2c2cccc(Cl)c2)n(C)c1=O (stereo not given),12,0,i,1,-2,-12,-2,-1,
COc1cccc(-c2csc(N3CCN(C(=O)Nc4ccccc4Cl)CC3)n2)c1,.,-2,i,-11,-2,-2,1,2,
CCn1c(COc2ccc(Cl)cc2)nnc1SCc1ccc(C#N)cc1,-15,-2,i,.,9,-12,3,-6,
OC(COC(c1ccc(Cl)cc1)c1ccc(Cl)cc1)CN1CCN(c2ccccn2)CC1 (stereo not given),-12,2,i,27,5,59,-1,1,
CCC(C)NC(=O)c1cc(Cl)ccc1OC (stereo not given),-14,-3,i,.,0,-3,6,6,
CC(C)c1cc(C(=O)Nc2cccc(Cl)c2)no1,-26,-10,i,-440,2,3,2,6,
O=c1cc(O)nc(SCc2ccccc2Cl)[nH]1,-14,4,i,.,5,-5,1,3,
CCn1c(SCC(=O)N2CCN(c3cccc(Cl)c3)CC2)nc2ccccc2c1=O,-7,-5,i,16,-1,27,3,6,
N/C(CCS(=O)(=O)c1ccc(Cl)cc1)=N\OC(=O)c1ccc(Cl)cc1,.,0,i,4,12,5,2,0,

# Screening data: PubChem BioAssay, several laboratories
